# HepG2: HepG2 cell cytotoxicity, dose response, cytotoxicity control, ATP luminescence, cherry-pick, activator set 2 (AID 1053143) | HepG2 viability, CellTiter-Glo ATP luminescence, 72 h | activity change, negative = cytotoxicity, % at the top dose, mostly 26 µM; hits show AC50 in µM | 3,400 tested, 3.7% active;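 active means fitted AC50 at most twice the highest valid dose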;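 further: 0 = neutral control and -100 = positive control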
# Active calls of the source: *. This is a subset, so the mix of outcomes need not match the whole.
SMILES,HepG2
CN1C(=O)/C(=C\c2ccc(N3CCCCC3)o2)C(=O)NC1=S,18%
Cc1cc(C(=O)Nc2ccccc2)nn1C(C)(C)C,-9%
Cc1cc(N=Nc2ccccc2C)ccc1N,6%
CN(C)C(=O)Oc1c(Cl)cc(Cl)c2cccnc12,14%
Cc1ccc(OCCOc2cccc(C=C3C(=O)NC(=O)NC3=O)c2)cc1,4%
CCOc1ccc(C2CC(c3c(O)n(C)c(=O)n(C)c3=O)=NN2)cc1 (stereo not drawn),-9%
CCCCn1c(O)c(C(C)=NCc2ccco2)c(=O)[nH]c1=O,12%
COc1ccc(CC2(CCc3ccncc3)C(=O)NC(=O)NC2=O)cc1OC,4%

# 4 entries from above, reformatted.
CCOc1ccc(C2CC(c3c(O)n(C)c(=O)n(C)c3=O)=NN2)cc1 (stereo not drawn)
  HepG2: -9%

Cc1cc(N=Nc2ccccc2C)ccc1N
  HepG2: 6%

CN1C(=O)/C(=C\c2ccc(N3CCCCC3)o2)C(=O)NC1=S
  HepG2: 18%

COc1ccc(CC2(CCc3ccncc3)C(=O)NC(=O)NC2=O)cc1OC
  HepG2: 4%
